Screening data from PubChem BioAssay.
VDR inh – blocks the human vitamin D receptor; hit rate 0.93% among 400,000; Potency, µM, without a hit: max response, negative = inhibition, hits mostly inhibitors; P11473; VDR-SRC2-3 peptide fluorescence polarization, 2 h; active means well fitted inhibition curve with a large enough effect; inconclusive means small, poorly fitted or top-dose-only effect, or another doubt; inactive means no such curve, though single readings can be large or run the other way; further: series mostly up to about 120 µM
Target sequence (P11473 whole entry, looked up): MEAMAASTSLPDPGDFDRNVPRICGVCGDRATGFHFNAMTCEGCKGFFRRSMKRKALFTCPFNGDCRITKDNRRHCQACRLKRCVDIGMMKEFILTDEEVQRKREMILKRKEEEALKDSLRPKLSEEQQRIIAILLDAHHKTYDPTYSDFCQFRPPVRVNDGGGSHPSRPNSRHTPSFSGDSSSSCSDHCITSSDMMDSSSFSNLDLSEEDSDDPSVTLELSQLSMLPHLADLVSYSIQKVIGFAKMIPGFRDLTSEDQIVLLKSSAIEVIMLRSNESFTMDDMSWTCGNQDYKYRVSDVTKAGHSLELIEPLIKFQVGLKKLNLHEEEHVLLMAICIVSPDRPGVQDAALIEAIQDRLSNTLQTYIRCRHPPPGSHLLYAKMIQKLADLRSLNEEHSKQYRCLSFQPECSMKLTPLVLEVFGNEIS
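After 23 nl compound addition and a short centrifugation, plates sat for 2 hours at ambient temperature; polarization of fluorescence then indicated loss of VDR binding to peptide SRC2-3.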
An asterisk follows results filed as active; ? = inconclusive. On the % scale 0 is the no-effect control and ±100 the full control effect; potency means the concentration at half of the fitted maximal effect. Only part of the results is shown; rates above refer to the full screens.

VDR inh | SMILES
-22% | CNc1nc(CC(C)=O)ns1
-1% | COc1cccc(N2CCN(C(=O)Cn3ncc4c3-c3ccccc3OC4)CC2)c1
? | COc1ccc(N(C)C(=O)c2cc3c(s2)-c2ccccc2OC3)cc1
-18% | COc1cccc(NS(=O)(=O)c2ccc3[nH]cc(C(=O)NCCc4ccccc4)c(=O)c3c2)c1
10% | COc1ccccc1NCC(O)Cn1c2ccccc2c2ccccc21 (stereo unspecified)
11% | CCOC(=O)N1CCN(Cc2nc3c(c(=O)n(C)c(=O)n3C)n2Cc2ccccc2)CC1
0% | COC(=O)c1cccc(NC(=O)Cc2coc3cc(OC)ccc23)c1
-2% | O=[N+]([O-])c1ccccc1S(=O)(=O)N1CCN(CC2CC=CCC2)CC1 (stereo unspecified)
10% | CS(=O)(=O)c1ccc2nc(NC(=O)CCN3C(=O)c4ccccc4C3=O)sc2c1
-14% | NC(=O)Nc1ccc(C(=O)OCC(=O)Nc2sccc2C(N)=O)cc1
20% | CCCCCCn1c(CN2CCCCC2)nc2c1c(=O)n(C)c(=O)n2C
-25% | COc1ccc(S(N)(=O)=O)cc1C(=O)NNC(=O)c1cccc(S(=O)(=O)N2CCOCC2)c1
2% | CC(C)C[C@H](NC(=O)N1CC(=O)Nc2ccccc21)C(=O)N[C@@H](Cc1c[nH]c2ccccc12)C(=O)O
-10% | CCOC(=O)c1c2ccccc2[n+]([O-])n1CCO
-8% | CC(=O)c1ccc(OCC(C)C)c(CN2CCCCC2)c1
9% | CC(=O)Nc1ccc(C(=O)Nc2ccc(S(=O)(=O)NCC3CCCO3)cc2)cc1 (stereo unspecified)
-14% | COC(=O)c1cc(CNC(=O)C(C)NS(=O)(=O)c2ccc(C)c(C)c2)ccc1OC (stereo unspecified)
-7% | Cc1nc2ccc(N=NC3=C(O)CC(C)(C)CC3=O)cc2s1
-23% | CCc1ccc(N=C2NC(=O)/C(=C/c3cc(OC)c(O)c(OC)c3)S2)cc1
? | CC1=CC(=O)[C@@H](O)[C@@H](c2ccccc2Br)N1C
-15% | COc1ccc2c(c1OC)C(=O)OC2CC(=O)c1ccc(O)cc1 (stereo unspecified)
1% | O=C(CNc1cccc([N+](=O)[O-])c1)N/N=C/c1ccc(F)cc1
-15% | CC1(C)Cc2c(cnn2-c2ccccc2)C(NC(=O)C2(C(N)=O)CC2)C1 (stereo unspecified)
-9% | CCOC(=O)C(C)(C)N(Cc1cccc(C)c1)S(=O)(=O)c1cccc([N+](=O)[O-])c1
-6% | CCOc1ccccc1/C=N/n1nnnc1N
-2% | CCn1c(SCC(=O)N/N=C(/C)c2ccncc2)nc2ccccc21
-2% | Cc1cccc(NC(=O)C(=O)NCC(c2cccnc2)N2CCc3ccccc3C2)c1C (stereo unspecified)
0% | O=S(=O)(CCN1CCN(c2ccccc2O)CC1)c1cc(Cl)ccc1Cl
-7% | FC(F)(F)c1cc(CN2CCC3(CCNCC3)CC2)cc(C(F)(F)F)c1
8% | Cc1ccc(Cn2ccn(Cc3ccc(C)cc3)c(=O)c2=O)cc1
3% | COc1ccc(Cn2c(C(=O)O)c(CNC3CCCCC3)c3ccc(C)cc32)cc1
9% | CCN1CCN(C(=O)c2cccc(OC3CCN(S(C)(=O)=O)CC3)c2)[C@@H](C)C1=O
-25% | Cc1ccc(C)c(C2=NNC(=NCc3ccccc3)SC2)c1
5% | O=C(COc1ccc(F)cc1)OCc1cc(=O)n2nc(C3CC3)sc2n1
-10% | O=C(O)Cc1ccc(S(=O)(=O)N2CCCC2)s1
5% | CCn1c(-c2c[nH]c3ccccc23)n[nH]c1=S
4% | COc1ccc(C)c2sc(N3CCN(C(=O)c4ccco4)CC3)nc12
7% | CCN(CC)CCNC(=O)c1ccc(-c2nc(CS(=O)(=O)c3ccc(C)cc3)c(C)o2)cc1
7% | CCCC(C)NC(=O)COC(=O)c1ccccc1SCC(=O)NC(C)CCC (stereo unspecified)
0% | CCc1nnc(SC(CC)C(=O)Nc2cc(C)ccc2C)c2cc3occc3n12 (stereo unspecified)
-8% | CCN1/C(=C/C=C2/SC(=Nc3cccc4ncccc34)N(C)C2=O)Sc2ccccc21
6% | CCn1nc(C)c(CCN(C)C(=O)Nc2cc(C)cc(C)c2)c1C
-12% | Cc1ccccc1N=C1NC(=O)/C(=C/c2cccn2-c2cccc(C(=O)O)c2)S1
-1% | COc1ccccc1C1C(C(=O)NCc2ccccc2)=C(C)Nc2ncnn21 (stereo unspecified)
-2% | CCn1c2ccccc2c2cc(/C=N/NC(=O)c3cccc(C)c3)ccc21
2% | COc1ccc2cc(C)c3nnc(SCC(=O)Nc4nc(-c5ccc(F)cc5)cs4)n3c2c1
-9% | O=[N+]([O-])c1cc(C(F)(F)F)cc([N+](=O)[O-])c1NCCNC(=S)Nc1ccc(Cl)c(Cl)c1
-1% | COC(=O)[C@H](c1ccccc1Cl)N1CCc2sccc2C1
-7% | CCOc1cccc(SCc2noc(C(=O)NCC3CCCO3)c2C(=O)O)c1 (stereo unspecified)
-19% | Cc1c(C(=O)N2CCC(C)CC2)oc2ccc(S(=O)(=O)N3CCC4(CC3)OCCO4)cc12
6% | CCOC(=O)N1CCN(c2cc(=O)n(-c3ccc(OCC)cc3)c(=O)[nH]2)CC1
20µM* | CCCCC/C=C/C=C1/C(=O)C=C[C@@H]1C/C=C\CCCC(=O)O
3% | O=C(NCCc1ccccc1)c1cc2ccccc2oc1=O
-1% | CC1CCCCC1NC(=O)CSc1nnc(CNC(=O)c2ccccc2)n1C (stereo unspecified)
-8% | Cc1ccc(-c2cc(C(=O)N/N=C/c3cccnc3)n[nH]2)o1
6% | COc1cc(OC)c2c(C)c(CC(=O)N3CCCCC3)c(=O)oc2c1
-8% | O=C(C1CCCN(S(=O)(=O)c2ccc(Br)s2)C1)N1CCN(c2cccc(Cl)c2)CC1 (stereo unspecified)
9% | CNS(=O)(=O)c1ccc(C)c(S(=O)(=O)NC)c1
3% | Cc1n[nH]c(C)c1S(=O)(=O)N(C)Cc1ccco1
8% | Cc1ccc(N2CCN(S(=O)(=O)N(C)C)CC2)cc1Cl

Next part.
VDR inh | SMILES
-7% | CCOC(=O)N1CCN(C(=O)CCCn2nnnc2CN2CCC(C)CC2)CC1
-9% | Cc1cc(N2CCC(C)CC2)nc2ccc(NC(=O)Cc3ccccc3Br)cc12
-3% | COc1cc(S(=O)(=O)N2CCOCC2)cc(C(=O)c2nccn2C)c1OC
-30% | CCCc1ccc(OCC(=O)NNC(=O)c2cccnc2)cc1
0% | Cc1ccc(OCCn2nnc3sc4c(c3c2=O)CCC(C)C4)cc1 (stereo unspecified)
22% | Cc1c(C#N)c2ccccc2n1CCOc1ccccc1F
-5% | Cc1ccc(C2=NN(CCC(=O)NC3CCCC3)C(=O)CC2)cc1
17% | COc1ccc(NC(=O)N2CCCC(c3ccccc3)C2)cc1 (stereo unspecified)
-8% | CCOc1cc2c(cc1/C=C/c1noc(C)c1[N+](=O)[O-])OC(C)C2 (stereo unspecified)
-7% | COc1cccc2c1O/C(=N\O)C(C(=O)Nc1ccc(C)cc1)C2 (stereo unspecified)
1% | CC1CCCN(C(=O)c2ccc3ncsc3c2)C1 (stereo unspecified)
5% | CC(=C/c1ccccc1)/C=N/NC(=O)c1cccs1
16% | O=C(O)C1C2C=CC(O2)C1C(=O)NCc1ccc2c(c1)OCO2 (stereo unspecified)
-16% | O=[N+]([O-])c1cc(C(F)(F)F)cc([N+](=O)[O-])c1NCc1cccnc1
-18% | CCOC(=O)c1c(CC(C)C)csc1N
-15% | CN1CCC(OC(=O)c2ccccc2Cl)CC1
-10% | CCc1nc(SCC(=O)Nc2cc(C)on2)c2c(=O)n(C)c(=O)n(C)c2n1
0% | Cc1ccc(OCc2cc(C(=O)NC(C)Cc3cccnc3)no2)cc1C (stereo unspecified)
-6% | CCC(=O)Nc1ccc(NC(=O)CSc2nnc(-c3ccco3)n2CC)cc1
9% | CCOc1ccc(Br)cc1C1=NN(C(C)=O)C(c2ccc([N+](=O)[O-])s2)O1 (stereo unspecified)

Copied from the list:
VDR inh result of Cc1c(C#N)c2ccccc2n1CCOc1ccccc1F = 22%
VDR inh result of CCOc1ccc(Br)cc1C1=NN(C(C)=O)C(c2ccc([N+](=O)[O-])s2)O1 (stereo unspecified) = 9%

(more compounds)
VDR inh | SMILES
8% | CNc1nc(C)nc(N/N=C/c2ccccc2)n1
7% | O=C(Cn1ncc2c(=O)oc3ccccc3c21)N1CCc2ccccc2C1
-14% | O=C(COc1ccc2c3c(c(=O)oc2c1)CCC3)NC(Cc1ccc(Cl)cc1)C(=O)O (stereo unspecified)
-10% | CC(=O)Nc1ccc(NCc2nnc3n2CCCCC3)cc1
26% | CCOC(=O)C1CCN(c2c(NCc3ccc(C(=O)NC(C)CC)cc3)c(=O)c2=O)CC1 (stereo unspecified)
-5% | CCOCCOc1nc2c(c(=O)n(C)c(=O)n2C)n1Cc1ccc(C)cc1
3% | C[n+]1ccccc1Nc1cc([N+](=O)[O-])ccc1N
-8% | COc1ccc(/C=N/NC(=O)c2ccc(NC(=O)C3CCCCC3)cc2)cc1O
-13% | Cc1onc(-c2ccccc2Cl)c1C(=O)Nc1ccc(F)c(F)c1
-7% | CN(C)S(=O)(=O)c1ccc(N2CCCC2)c(C(=O)NC2CCC(O)CC2)c1 (stereo unspecified)
-3% | CCN(CC)CCCNC(=O)CSc1nc(C)cc(C)n1
-12% | NC(=S)NN=C1CCCCCCCC1
1% | COc1ccc(C(C)C)cc1S(=O)(=O)NCCc1c(C)[nH]c2c(Cl)cccc12
? | NC(=S)NNc1cc(Cl)cc(Cl)c1
4% | COc1ccc(S(=O)(=O)NCC2CCCN(C(=O)C=C(C)C)C2)cc1 (stereo unspecified)
-9% | COc1ccc(/C=C(/C#N)c2nc(-c3ccc(-c4ccccc4)cc3)cs2)cc1
4% | CC(C)Cc1ccc(CN2CCCC(NC(=O)c3ccnn3C)C2)cc1 (stereo unspecified)
9% | COc1ccccc1NC(=O)C(C)OC(=O)CC1CCCCC1 (stereo unspecified)
-13% | C[C@H]1C=C(C(=O)NCc2nc3ccccc3[nH]2)O[C@@H](OCc2ccc(CO)cc2)C1
0% | O=C(CC(C(=O)O)N1CCOCC1)Nc1ccc(Cl)cc1 (stereo unspecified)

5 of the compounds above, bar-delimited.
Compound | VDR inh
COc1ccccc1NC(=O)C(C)OC(=O)CC1CCCCC1 (stereo unspecified) | 9%
COc1ccc(C(C)C)cc1S(=O)(=O)NCCc1c(C)[nH]c2c(Cl)cccc12 | 1%
NC(=S)NNc1cc(Cl)cc(Cl)c1 | ?
C[C@H]1C=C(C(=O)NCc2nc3ccccc3[nH]2)O[C@@H](OCc2ccc(CO)cc2)C1 | -13%
COc1ccc(/C=C(/C#N)c2nc(-c3ccc(-c4ccccc4)cc3)cs2)cc1 | -9%

Rewritten with bars between the fields: part of the list above
SMILES | VDR inh
CCOCCOc1nc2c(c(=O)n(C)c(=O)n2C)n1Cc1ccc(C)cc1 | -5%
C[n+]1ccccc1Nc1cc([N+](=O)[O-])ccc1N | 3%
COc1ccc(/C=N/NC(=O)c2ccc(NC(=O)C3CCCCC3)cc2)cc1O | -8%
Cc1onc(-c2ccccc2Cl)c1C(=O)Nc1ccc(F)c(F)c1 | -13%
CN(C)S(=O)(=O)c1ccc(N2CCCC2)c(C(=O)NC2CCC(O)CC2)c1 (stereo unspecified) | -7%

Carrying on:
VDR inh | SMILES
-20% | CN(C)c1ccc(/C=N/NC(=O)c2cc(=O)[nH]c3ccccc23)cc1
-9% | CCOC(=O)c1oc2cc(O)cc(C)c2c1C
-2% | O=C(CSc1nnc(NC(=O)c2c(F)cccc2F)s1)NCc1ccc(F)cc1
-24% | CN(C)c1ncc2nc(CCc3ccccc3)c(=O)n(CCc3ccccc3)c2n1
-6% | O=C(CSc1nc(C2CC2)nc2ccccc12)Nc1ccccc1N1CCOCC1
8% | O=C1CC[C@@H]2CC3(C[C@@H]4CCN1[C@H]24)Nc1cc(Cl)ccc1NC3=NC1CCCCC1 (stereo partly specified)
-3% | O=C(CSc1nnc(-c2ccccc2Br)o1)N1CCOCC1
-3% | CN(C)c1ccc2nsnc2c1[N+](=O)[O-]
-3% | Cc1cc(C)c(C(=O)COC(=O)C2CC3CCCC(C2)C3=O)c(C)c1 (stereo unspecified)
-10% | Cc1nnc(SCC(=O)NC2CCCC2)n1CCc1ccccc1
5% | COc1cccc(CN2CC(C(=O)NCCc3ccc(C)s3)CCC2=O)c1 (stereo unspecified)
1% | Cc1ccc(S(=O)(=O)N2CCN(CC(=O)NC3CCCc4ccccc43)CC2)c(C)c1 (stereo unspecified)
-9% | O=C1CN(C(=O)COC(=O)CCS(=O)(=O)c2ccccc2)c2ccccc2N1
-2% | COc1ccc(NC(=O)Nc2nnc(C(C)C)s2)cc1
7% | CCCCOC(=O)Nc1ccc(S(=O)(=O)Nc2nccs2)cc1
5% | COc1ccc(C/C(C)=N/NC(=O)c2ccncc2)cc1
-7% | CC1=CN2C(=N)/C(=C/c3ccc(C)o3)C(=O)N=C2S1
2% | Cn1c(C(=O)N(Cc2ccccc2)Cc2cccs2)cc2sccc21
2% | COc1cc(OC)cc(C(=O)NNC(=O)CCc2nc3ccccc3c(=O)[nH]2)c1
-27% | CN(c1ccccc1)S(=O)(=O)c1cccc(C(=O)NCc2ccccc2)c1
-20% | Cc1ccc(NC(=O)C2C3C=CC4(O3)C2C(=O)N(CCN2CCOCC2)C4C(=O)NC2CCCCC2)cc1C (stereo unspecified)

Filtered by structure, the compounds so far containing a cyano group.
VDR inh | SMILES
22% | Cc1c(C#N)c2ccccc2n1CCOc1ccccc1F
-9% | COc1ccc(/C=C(/C#N)c2nc(-c3ccc(-c4ccccc4)cc3)cs2)cc1
